# DUX4 inh: DUX4-mediated transcription inhibition. 293T-iDUX4 ZSCAN4-Gaussia luciferase reporter, 24 h; hits give low values. 0.8% of 37,000 active. activity change, negative = inhibition, % (test concentration not listed);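 active means -10% or lower and over 25 points stronger than a control reporter; inconclusive means -10% or lower with a smaller gap; inactive means above -10%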;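 further: 0% = median of neutral control wells and -100% = median of positive control wells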
# DUX4 inh difference: further read-out of DUX4 inh, marked with its call; Gaussia minus Italica difference, %; measured here: selective DUX4 reporter inhibition;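 worked out from the two reporters; negative = selective loss of the DUX4 reporter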
# DUX4 inh control: recorded beside DUX4 inh, whose call it bears; activity change, negative = inhibition, %; measured here: Italica tet-on control reporter;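 0 = neutral control and -100 = positive control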
# Starred values were filed as active, the others as inactive; ? = inconclusive; / = no result given. Only part of the results is shown; rates above refer to the full screens.
DUX4 inh | DUX4 inh control | DUX4 inh difference | SMILES
-3 | 3.1 | -6 | COc1ccc2c3c([nH]c2c1)[C@H](CO)N(Cc1ccc(F)cc1)CC31CN(C(C)=O)C1
-2 | -0.3 | -2 | C/C=C/c1ccc([C@H]2[C@@H](CNC(=O)c3ccccn3)N(C(C)=O)[C@H]2CO)cc1
? | / | / | CCCNC(=O)N1[C@H](CO)[C@H](c2ccccc2-c2ccc(F)cc2)[C@@H]1C#N
0 | 4.5 | -5 | CN(C)C(=O)C[C@H]1C[C@H]2c3cc(NC(=O)c4cccnc4)ccc3O[C@H]2[C@@H](CO)O1
9 | 0.9 | 8 | OC[C@H]1[C@@H](c2ccc(C#Cc3ccccc3F)cc2)[C@H]2CN(Cc3cncnc3)CCCCN21
9 | -1.6 | 11 | CCS(=O)(=O)Nc1ccc2c(c1)C(=O)N(C)C[C@@H](OC)[C@@H](C)CN(C(=O)CN(C)C)[C@@H](C)CO2
18 | 2.9 | 15 | COc1cccc(-c2ccccc2[C@@H]2[C@H](C#N)N(C(=O)c3ccccn3)[C@H]2CO)c1
1 | 6.4 | -6 | O=C(O)[C@H]1[C@H](CO)[C@H]2Cn3c(ccc(C4=CCCCC4)c3=O)[C@H]2N1C(=O)c1ccccc1F
22 | 7.9 | 14 | CC(=O)N1[C@H](CO)[C@H](c2ccc(-c3ccc(C#N)cc3)cc2)C12CN(C(=O)C1CC1)C2
2 | 2.1 | 0 | O=C(Nc1ccc(F)cc1)N1C[C@@H]2[C@H](c3ccccc31)[C@H](CO)N2C(=O)c1ccccc1F
? | / | / | CN1c2ccc(-c3cccc(F)c3)cc2[C@H]2[C@H](CCN2C(=O)c2cccc(F)c2)[C@@H]1CO
-1 | -1.3 | 0 | CCCNC(=O)N1[C@H](C#N)[C@@H](c2ccc(C#Cc3cccc(F)c3)cc2)[C@@H]1CO
-9 | 1.3 | -11 | N#C[C@@H]1[C@@H](c2ccccc2-c2ccc(F)cc2)[C@@H](CO)N1c1ncc(-c2ccccc2)s1
1 | 0.9 | 0 | O=C(C[C@@H]1CC[C@H]2[C@@H](COC[C@@H](O)CN2Cc2cc(F)cc(F)c2)O1)Nc1nccs1
6 | -32 | 38 | CNC(=O)C[C@H]1CC[C@@H]2[C@@H](COc3ccc(NC(=O)Nc4ccc(Cl)cc4)cc3C(=O)N2C)O1

DUX4 inh | DUX4 inh control | DUX4 inh difference | SMILES
5 | 1.7 | 3 | N#C[C@H]1N[C@H](CO)[C@@H]1c1ccc(-c2ccccc2F)cc1
1 | -0.9 | 2 | CCN1[C@@H]2c3ccc(-c4ccncc4)c(=O)n3C[C@@H]2[C@@H](CO)[C@@H]1C(=O)NCCc1cn(C)cn1
1 | -0.7 | 2 | N#Cc1cccc(-c2ccc(C3[C@H]4CNC[C@@H]3N4C(=O)Nc3ccc(Cl)cc3)cc2)c1 (some centres not stated)
? | -6.1 | 6 | Cn1cnc(S(=O)(=O)N2C[C@@H]3N[C@H](C2)C3c2ccc(-c3ccccc3F)cc2)c1 (some centres not stated)
6 | 0.9 | 5 | COC(=O)C[C@H]1C[C@@H]2c3cc(NC(=O)CN(C)C)ccc3O[C@@H]2[C@@H](CO)O1
-1 | -0.2 | -1 | O=C(C1CCOCC1)N1C[C@@H]2[C@H](c3ccccc31)[C@@H](CO)N2C(=O)Nc1ccccc1F
0 | 3.7 | -4 | N#C[C@@H]1[C@H](c2ccc(C3=CCCCC3)cc2)[C@H](CO)N1C(=O)CN1CCOCC1
-2 | -1.0 | -1 | C[C@@H]1CN([C@@H](C)CO)S(=O)(=O)c2ccc(C3=CCCCC3)cc2O[C@H]1CN(C)C(=O)Nc1ccc2c(c1)OCO2
3 | -0.1 | 3 | COCC(=O)Nc1ccc2c(c1)C(=O)N(C)[C@@H]1CC[C@@H](CC(=O)NC3CCCC3)O[C@@H]1CO2
19 | 3.2 | 16 | O=C(CN1CCOCC1)N1CC[C@H]2[C@H](CO)Nc3ccc(Br)cc3[C@H]21
0 | 0.0 | 0 | C[C@@H]1CCCCO[C@H](CN(C)C(=O)c2ccncc2)[C@@H](C)CN([C@@H](C)CO)C(=O)c2cc(NC(=O)CCC(F)(F)F)ccc2O1
? | / | / | O=C(C[C@@H]1C[C@H]2c3cc(NC(=O)c4ccc5c(c4)OCO5)ccc3O[C@H]2[C@H](CO)O1)NCc1ccc(Oc2ccccc2)cc1
-7 | 6.6 | -14 | CO[C@@H]1CN(C)C(=O)c2ccc(NC(=O)NC3CCCCC3)cc2OC[C@@H](C)NC[C@H]1C
8 | 2.9 | 5 | COc1ccc(-c2ccccc2[C@H]2[C@@H](C#N)N(C(=O)C3CC3)[C@H]2CO)cc1
-2 | 3.9 | -6 | O=C(C[C@H]1C[C@H]2c3cc(NC(=O)NC4CCCC4)ccc3O[C@H]2[C@@H](CO)O1)NCc1ccncc1

# Arranged by length of the SMILES (ascending): part of the list above
DUX4 inh | DUX4 inh control | DUX4 inh difference | SMILES
8 | 2.9 | 5 | COc1ccc(-c2ccccc2[C@H]2[C@@H](C#N)N(C(=O)C3CC3)[C@H]2CO)cc1
? | -6.1 | 6 | Cn1cnc(S(=O)(=O)N2C[C@@H]3N[C@H](C2)C3c2ccc(-c3ccccc3F)cc2)c1 (some centres not stated)
1 | -0.7 | 2 | N#Cc1cccc(-c2ccc(C3[C@H]4CNC[C@@H]3N4C(=O)Nc3ccc(Cl)cc3)cc2)c1 (some centres not stated)
-7 | 6.6 | -14 | CO[C@@H]1CN(C)C(=O)c2ccc(NC(=O)NC3CCCCC3)cc2OC[C@@H](C)NC[C@H]1C
-2 | 3.9 | -6 | O=C(C[C@H]1C[C@H]2c3cc(NC(=O)NC4CCCC4)ccc3O[C@H]2[C@@H](CO)O1)NCc1ccncc1
1 | -0.9 | 2 | CCN1[C@@H]2c3ccc(-c4ccncc4)c(=O)n3C[C@@H]2[C@@H](CO)[C@@H]1C(=O)NCCc1cn(C)cn1
? | / | / | O=C(C[C@@H]1C[C@H]2c3cc(NC(=O)c4ccc5c(c4)OCO5)ccc3O[C@H]2[C@H](CO)O1)NCc1ccc(Oc2ccccc2)cc1

# Going on with the list.
DUX4 inh | DUX4 inh control | DUX4 inh difference | SMILES
2 | -4.2 | 6 | O=C([C@H]1[C@H](CO)[C@H]2Cn3c(ccc(C4=CCCCC4)c3=O)[C@H]2N1Cc1nccs1)N1CCCCC1
-3 | 0.4 | -4 | COCC(=O)N1C[C@H](C)[C@H](OC)CN(C)C(=O)c2cc(NC(=O)Nc3ccccc3)ccc2OC[C@@H]1C
3 | 2.9 | 1 | C[C@@H]1CCCCO[C@H](CN(C)C(=O)c2ccncc2)[C@@H](C)CN([C@H](C)CO)C(=O)c2cc(N(C)C)ccc2O1
1 | 2.2 | -2 | CN(C)CCCNC(=O)C[C@@H]1CC[C@@H]2[C@@H](COc3ccc(NC(=O)c4cccc(F)c4)cc3C(=O)N2C)O1
0 | 5.0 | -5 | C/C=C/c1ccc([C@@H]2[C@@H](CO)N(C(=O)c3cnccn3)C23CN(C(=O)CC)C3)cc1
-5 | 6.5 | -12 | CCCN1[C@@H]2c3ccc(-c4ccccc4F)c(=O)n3C[C@H]1[C@H](CO)[C@H]2C(=O)NCc1ccccn1
10 | 0.4 | 9 | C/C=C/c1ccc2c(c1)[C@@H]1[C@@H](CCN1C(=O)c1cnccn1)[C@H](CO)N2
1 | -2.6 | 3 | C[C@@H]1CN([C@H](C)CO)S(=O)(=O)c2ccc(Br)cc2O[C@H]1CN(C)C(=O)C1CC1
1 | 0.7 | 1 | C[C@@H]1CN([C@H](C)CO)C(=O)c2cc(-c3cccc(C#N)c3)cnc2O[C@@H]1CN(C)C(=O)C1CCOCC1
0 | 1.7 | -2 | C[C@H](CO)N1C[C@H](C)[C@@H](CN(C)Cc2ccccc2C(F)(F)F)OCc2cn(nn2)CCCC1=O
1 | -1.1 | 2 | C[C@H]1CN([C@@H](C)CO)C(=O)c2cc(N(C)C)ccc2O[C@@H]1CN(C)S(=O)(=O)c1ccc(F)cc1
-5 | -0.8 | -4 | O=C(C[C@H]1CC[C@@H]2[C@H](COC[C@@H](O)CN2C(=O)c2cnccn2)O1)NCc1ccc(Oc2ccccc2)cc1
1 | -3.7 | 5 | CNC(=O)C[C@@H]1CC[C@@H]2[C@H](COC[C@@H](O)CN2Cc2ccc(Cl)c(Cl)c2)O1
11 | -5.3 | 16 | O=C(NCC1CCCCC1)[C@H]1[C@H](CO)[C@H]2Cn3c(cccc3=O)[C@H]2N1C(=O)CC1CC1
? | / | / | CS(=O)(=O)Nc1ccc2c(c1)[C@@H]1C[C@H](CC(=O)NCc3ccc(Oc4ccccc4)cc3)O[C@@H](CO)[C@@H]1O2

DUX4 inh | DUX4 inh control | DUX4 inh difference | SMILES
-1 | -2.9 | 2 | CC(C)[C@@H]1C(=O)N[C@H](c2cccc(Cl)c2)CC=CC[C@@H](C)Oc2ccccc2C(=O)N1C (mixture of isomers)
? | / | / | O=C1CN(S(=O)(=O)Cc2ccccc2)C[C@@H]2[C@H](c3ccc(C#Cc4ccccc4)cc3)[C@H](CO)N12
2 | 4.1 | -2 | CO[C@H]1CN(C)C(=O)c2cc(NC(=O)NC(C)C)ccc2OC[C@H](C)N(CCC(F)(F)F)C[C@@H]1C
-8 | -7.9 | 0 | COCC(=O)N1CCCCN2[C@@H](CO)[C@@H](c3ccc(C#Cc4ccccc4)cc3)[C@@H]2C1
-2 | -2.3 | 0 | COc1ccc(S(=O)(=O)N(C)C[C@@H]2OCCCC[C@H](C)Oc3ccc(NC(=O)Nc4cccc5ccccc45)cc3C(=O)N([C@H](C)CO)C[C@@H]2C)cc1
? | / | / | O=C(C[C@@H]1CC[C@@H]2[C@H](COC[C@@H](O)CN2Cc2cccc(C(F)(F)F)c2)O1)NCc1ccc(F)cc1
6 | 1.7 | 4 | CN1CCCCN2[C@@H](CO)[C@H](c3ccc(C#CC4(O)CCCC4)cc3)[C@@H]2C1
1 | 4.1 | -4 | C/C=C/c1ccc([C@@H]2[C@@H](CO)N(C(C)=O)[C@H]2CN(CC)C(=O)CC)cc1
-3 | -0.9 | -2 | C[C@H](CO)N1C[C@H](C)[C@@H](CN(C)S(=O)(=O)c2cccs2)OCCCC[C@H](C)Oc2ccc(N(C)C)cc2C1=O
-1 | 1.4 | -2 | C[C@@H](NC(=O)C[C@@H]1CC[C@@H]2[C@H](COc3ccc(NC(=O)C4CCOCC4)cc3C(=O)N2C)O1)c1ccccc1
? | / | / | O=C(c1ccccc1F)N1CC(=O)N2[C@H](C1)[C@@H](c1ccc(-c3ccc(F)cc3)cc1)[C@@H]2CO
17 | 0.6 | 17 | CCC(=O)N1CC2(C1)[C@@H](c1ccc(-c3ccccc3C)cc1)[C@@H](CO)N2C(C)=O
? | / | / | COc1ccccc1-c1ccc([C@H]2[C@H](CO)N3CCCCN(C(=O)NC4CCCC4)C[C@@H]23)cc1
? | / | / | C[C@@H]1CN([C@@H](C)CO)C(=O)c2c(c3ccccc3n2C)-c2ccccc2CO[C@@H]1CN(C)Cc1cccc2c1OCCCO2
-2 | 4.2 | -6 | C[C@@H]1CN([C@@H](C)CO)C(=O)CCCn2cc(nn2)CO[C@H]1CN(C)C(=O)c1cc(-c2ccccc2)on1

DUX4 inh | DUX4 inh control | DUX4 inh difference | SMILES
2 | -1.8 | 4 | Cc1noc(C)c1S(=O)(=O)Nc1ccc2c(c1)C(=O)N([C@H](C)CO)C[C@@H](C)[C@@H](CN(C)Cc1ccc3c(c1)OCO3)O2
-9 | 0.5 | -9 | CN1c2ccc(-c3ccccc3F)cc2[C@H]2[C@H](CCN2S(=O)(=O)c2ccccc2)[C@H]1CO
-7 | -1.2 | -5 | O=C(c1cccnc1)N1C[C@H]2[C@@H](c3ccccc31)[C@H](CO)N2CC1CCCCC1
1 | 7.0 | -6 | COc1cccc(-c2ccc3c(c2)O[C@@H](CN(C)C(=O)C2CCOCC2)[C@H](C)CN([C@H](C)CO)S3(=O)=O)c1
-2 | -1.2 | -1 | O=C(Nc1ccc2c(c1)[C@@H]1C[C@H](CC(=O)N3CCCCC3)O[C@@H](CO)[C@@H]1O2)NC1CCCCC1
4 | -2.4 | 6 | C[C@@H]1CN([C@@H](C)CO)C(=O)c2cc(NS(=O)(=O)c3ccc(F)cc3)ccc2O[C@@H]1CN(C)Cc1ccc(Oc2ccccc2)cc1
-3 | -3.7 | 0 | CNC(=O)C[C@@H]1CC[C@@H]2[C@H](COC[C@H](O)CN2S(=O)(=O)c2ccccc2Cl)O1
-3 | 0.7 | -3 | CNC[C@@H]1Oc2cc(C#CC(C)(C)O)ccc2S(=O)(=O)N([C@@H](C)CO)C[C@H]1C
? | / | / | CC(C)[C@@H](C)NC(=O)N(C)C[C@H]1OCc2ccccc2-c2c(n(C)c3ccccc23)C(=O)N([C@H](C)CO)C[C@@H]1C
-2 | 0.7 | -2 | COc1ccccc1-c1ccc([C@@H]2[C@H](C#N)N(C(=O)C3CC3)[C@H]2CO)cc1
? | / | / | COc1ccccc1NC(=O)N1CCCCN2[C@@H](CO)[C@@H](c3ccc(-c4cccc(C#N)c4)cc3)[C@@H]2C1
2 | 1.6 | 1 | COc1ccc(S(=O)(=O)Nc2ccc3c(c2)C(=O)N([C@@H](C)CO)C[C@H](C)[C@H](CN(C)S(=O)(=O)c2cn(C)cn2)OCCCC[C@@H](C)O3)cc1
-2 | 3.5 | -6 | O=C(Nc1ccc(F)cc1)N1C[C@@H]2[C@H](c3ccccc31)[C@@H](CO)N2C(=O)Cc1cccnc1
-6 | -3.3 | -3 | O=C1N[C@H](Cc2ccccc2)COCc2cn(nn2)CC[C@@H]1Cc1cccc(F)c1
4 | 0.4 | 3 | CCCC#Cc1ccc([C@@H]2[C@@H](CO)N3C(=O)CN(C(=O)c4ccccn4)C[C@@H]23)cc1
1 | 1.5 | -1 | C[C@H](O)C#Cc1cnc2c(c1)C(=O)N([C@@H](C)CO)C[C@@H](C)[C@H](CN(C)C(=O)c1ccccc1F)O2
-33* | -7.4* | -25* | C[C@H](CO)N1C[C@H](C)[C@H](CN(C)S(=O)(=O)CC(F)(F)F)OCc2ccccc2-c2c(n(C)c3ccccc23)C1=O

# Source: PubChem BioAssay (Broad Institute)
